Assay outcomes from PubChem.
HCMV UL50-53 inh – disrupts HCMV UL50-UL53 complex binding. hit rate 0.15% among 190,000. HTRF UL50-UL53 interaction, normalized percent inhibition. inhibition, % (concentration not given with the values). AID 1918969;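 active = both replicates at 50% or more, plus weaker picks with an unusually low signal ratio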;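 also: stock transfer was 100 nL into about 20 µL; 0% = negative control wells and 100% = wells with untagged competitor protein; inactives centre near -12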
GIV-Gai inh – blocks GIV peptide binding to rat Galpha-i3. P08753. Galpha-i3/FITC-GIV peptide fluorescence polarization, 90 min; active compounds read low; scaled: aluminum fluoride 0%, vehicle 100%. percent of control (FP), % (no concentration beside the values). hit rate 0.42% among 210,000;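 active = replicate mean at 85% of control or lower, very high polarization wells dropped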;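 also: wells of about 15 µL received 100 nL stock; the first replicate is given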
Target sequence (P08753 whole entry, looked up): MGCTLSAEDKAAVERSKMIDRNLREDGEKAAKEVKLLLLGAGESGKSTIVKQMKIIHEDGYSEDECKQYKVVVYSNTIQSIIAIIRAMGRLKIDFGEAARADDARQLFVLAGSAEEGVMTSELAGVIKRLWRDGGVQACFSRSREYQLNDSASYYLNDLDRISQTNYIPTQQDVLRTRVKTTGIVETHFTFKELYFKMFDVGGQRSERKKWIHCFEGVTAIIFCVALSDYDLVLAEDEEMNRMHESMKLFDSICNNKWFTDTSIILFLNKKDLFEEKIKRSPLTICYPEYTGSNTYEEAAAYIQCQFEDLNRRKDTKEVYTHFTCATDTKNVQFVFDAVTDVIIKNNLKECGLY
* marks the source's active call; other numbers are inactive results; · = no result given; & = joins results of further samples. The list is partial. The share of hits here may be higher or lower than overall.

# | SMILES | HCMV UL50-53 inh | GIV-Gai inh
1 | CCOC(=O)c1c(NC(=S)NC(=O)c2ccccc2)sc2c1CC(C(C)C)OC2 (centres undefined) | · | 107
2 | O=C(Cn1ncc2c(c1=O)N(C1CC1)C(=O)CS2)NC1CCCCC1 | · | 104
3 | CCN1C(=O)c2ccccc2Sc2cc(-c3noc(CNS(=O)(=O)c4ccccc4)n3)ccc21 | · | 97
4 | O=C(C1CCCO1)N1CCCn2nc(-c3cccs3)cc2C1 (centres undefined) | · | 105
5 | COc1ccc(C2CC(C(F)(F)F)n3ncc(C(=O)Nc4sc5c(c4C(=O)OC(C)C)CCCC5)c3N2)cc1OC (centres undefined) | · | 108
6 | CC(CCc1ccccc1)Nc1nc(Cl)nc(NCCN2CCOCC2)n1 (centres undefined) | · | 103
7 | COc1ccc(N2CCN(S(=O)(=O)c3ccc(F)c(C(=O)Nc4cc(Cl)cc(Cl)c4)c3)CC2)cc1 | · | 119
8 | CN(Cc1ccsc1)C(=O)NC1CCCC1 | · | 97
9 | COc1ccccc1C(=O)NCc1nnc(SCC(=O)N2N=C(c3cccs3)CC2c2ccc(F)cc2)n1C (centres undefined) | · | 110
10 | CCOc1ccc(NS(=O)(=O)c2c(C)c(C)cc3c(C)c(C(=O)N4CCCC4)oc23)cc1 | · | 100
11 | O=C(Nc1ccccc1)c1ccc(=O)n(Cc2ccccc2F)n1 | · | 100
12 | COc1ccccc1C(=O)N/C(=C/c1ccc2c(c1)OCO2)C(=O)Nc1cccc(C(=O)O)c1 | · | 115
13 | CCc1ccc2c(c1)[C@H]1OCCC[C@H]1C(c1ccc(OC)c(C)c1)N2 (some centres undefined) | · | 101
14 | COC(=O)CSc1nc(-c2cccs2)cc(C(F)(F)F)c1C#N | · | 109
15 | O=C(NCCN1CCOCC1)c1cc(S(=O)(=O)N2CCOCC2)ccc1Sc1ccc(Br)cc1 | · | 97
16 | Cn1c(=O)c2nc(SCC(=O)O)n(CCc3ccccc3)c2n(C)c1=O | · | 101
17 | Cc1ccc(C(=O)Oc2ccc(C(c3c(C)[nH]n(-c4ccccc4)c3=O)c3c(C)[nH]n(-c4ccccc4)c3=O)cc2)cc1 | · | 114
18 | COc1ccc(-c2nc(-c3ccc(OC)cc3OC)[nH]c2-c2ccc(OC)cc2)cc1 | · | 116
19 | O=C(Nc1ccc(Oc2ccc(Cl)c3ccccc23)c(Cl)c1)c1cc(Br)cc(Br)c1O | · | 110
20 | O=c1ccc(-c2ccccc2)nn1CCc1nc(-c2ccc3c(c2)OCO3)no1 | · | 101
21 | Cc1ccc(NC(=O)CSc2nc3c(c(-c4ccco4)c2C#N)CCCC3)cc1 | · | 112
22 | CC1CCCN(CC2CCN(S(=O)(=O)Cc3ccccc3F)CC2)C1 (centres undefined) | · | 108
23 | CN1CCN(C(=O)c2ccc(NCc3ccc(F)cc3)c(S(=O)(=O)Nc3cccc(C(F)(F)F)c3)c2)CC1 | · | 111
24 | CC(=O)Nc1ccc(-n2c(/C=C/c3cccc4ccccc34)nc3ccccc3c2=O)cc1 | · | 100
25 | O=C(c1cccc(-c2nc(-c3cccc(F)c3)no2)c1)N1CCN(c2ccccn2)CC1 | · | 103
26 | O=C1CCCc2c1cc(C(=O)NCCC1=CCCCC1)c(=O)n2-c1ccc(F)cc1 | · | 103
27 | CCc1ccc(S(=O)(=O)N2CCCN(c3nc4cccnc4s3)CC2)cc1 | · | 107
28 | Cc1onc(-c2ccc(Br)cc2)c1C(=O)N1CCCC1 | · | 105
29 | CCOC(=O)C1=C(C)N=c2s/c(=C/c3cc(Br)ccc3O)c(=O)n2C1c1cc(OC)ccc1OC (centres undefined) | · | 113
30 | O=C(COc1ncnc2onc(-c3ccccc3)c12)NC1CCCc2ccccc21 (centres undefined) | · | 106

Some of these compounds in order of length of the SMILES, lowest first.
# | SMILES | HCMV UL50-53 inh | GIV-Gai inh
26 | O=C1CCCc2c1cc(C(=O)NCCC1=CCCCC1)c(=O)n2-c1ccc(F)cc1 | · | 103
3 | CCN1C(=O)c2ccccc2Sc2cc(-c3noc(CNS(=O)(=O)c4ccccc4)n3)ccc21 | · | 97
10 | CCOc1ccc(NS(=O)(=O)c2c(C)c(C)cc3c(C)c(C(=O)N4CCCC4)oc23)cc1 | · | 100
17 | Cc1ccc(C(=O)Oc2ccc(C(c3c(C)[nH]n(-c4ccccc4)c3=O)c3c(C)[nH]n(-c4ccccc4)c3=O)cc2)cc1 | · | 114

Another view of 2 compounds above:
19) O=C(Nc1ccc(Oc2ccc(Cl)c3ccccc23)c(Cl)c1)c1cc(Br)cc(Br)c1O
20) O=c1ccc(-c2ccccc2)nn1CCc1nc(-c2ccc3c(c2)OCO3)no1

compound no. | 19 | 20
HCMV UL50-53 inh | · | ·
GIV-Gai inh | 110 | 101

Next part:
# | SMILES | HCMV UL50-53 inh | GIV-Gai inh
31 | CC1(C)CC(=O)C2=C(C1)c1c(ccc3ccccc13)NC2c1cn(Cc2ccc(Cl)c(Cl)c2)nc1-c1ccccc1 (centres undefined) | · | 106
32 | CC(CCCC(C)(C)O)CC1C2=C(CCCC2=O)OC2=C1C(=O)CCC2 (centres undefined) | · | 103
33 | CCCc1[nH]n(-c2ccc(F)cc2)c(=O)c1C=NCCc1ccc(Cl)cc1 | · | 118
34 | Cc1cc(C)c2c(n1)sc1c(=O)n(-c3ccc(C(=O)Nc4ccc(C)c(C)c4)cc3)cnc12 | · | 96
35 | COCCC(=O)N1CCC(c2nc(C(=O)N3CCSCC3)c(C)o2)CC1 | · | 101
36 | CSc1cccc(NC(=O)NC2CCN(c3ccccc3)C2=O)c1 (centres undefined) | · | 96
37 | COc1ccc(C2Nc3ccc4ncccc4c3C3=C2C(=O)CCC3)cc1OC (centres undefined) | · | 109
38 | C=CCOc1ccc(C2C(C(=O)OCC)=C(C)N=c3s/c(=C4/C(=O)Nc5ccccc54)c(=O)n32)cc1OCC (centres undefined) | · | 107
39 | CCCOc1ccccc1N=c1ssc2c1-c1cc(OC)ccc1NC2(C)C | · | 123
40 | O=S(=O)(NCc1ccc(-c2nn3cnnc3s2)cc1)c1ccccc1 | · | 105
41 | O=c1ccn(-c2ccc(Cl)cc2)nc1-c1nc(-c2ccc(Br)cc2)no1 | · | 100
42 | Cc1cc(C2CCCN2Cc2ccc(F)c(Br)c2)on1 (centres undefined) | · | 97
43 | O=C(NCc1nnc(C(=O)Nc2ccc3c(c2)OCO3)s1)NC1CCCC1 | · | 103
44 | C#CCSc1c(CCC)cnc2c1c(=O)n(C)c(=O)n2C | · | 105
45 | CCOC(=O)CN1C(=O)C(O)(C(C)C(=O)c2ccccc2)c2ccccc21 (centres undefined) | · | 108
46 | O=C(Cn1nc2c3sc(N4CCCCC4)nc3ncn2c1=O)Nc1ccc(F)c(F)c1 | · | 103
47 | O=C(Cn1c2ccccc2n2c(=O)cc(-c3ccc(Cl)cc3)nc12)Nc1cc(F)ccc1F | · | 105
48 | O=S(=O)(c1ccc2c(c1)-c1oncc1CO2)N1CCc2ccccc21 | · | 104
49 | O=C(Cn1nc2c3sccc3ncn2c1=O)Nc1ccccc1Cl | · | 107
50 | O=C(NCCN1CCN(c2ccccc2F)CC1)c1csc(-c2ccncc2)n1 | · | 101
51 | O=C(Cn1cccc1-c1nnc(C2CCC2)o1)N1CCN(C2CCCCC2)CC1 | · | 99
52 | O=C(CNS(=O)(=O)c1cc(-c2noc(C3CCC3)n2)cs1)N1CCN(c2ccccc2)CC1 | · | 98
53 | CCOc1ccc(NC(=O)c2ccc3c(=O)n(-c4cc(OC)ccc4OC)c(=S)[nH]c3c2)cc1 | · | 100
54 | CN(C)c1cc(Nc2ccccc2)c2c3c(onc13)-c1ccccc1C2=O | · | 114
55 | CN(C)S(=O)(=O)c1ccc(-c2nnc(C(=O)NCC3CCCO3)o2)cc1 (centres undefined) | · | 104
56 | CC(C)(C)C1CC=C2C(C#N)=C(N)C(C#N)(C#N)C(c3ccc(Cl)cc3)C2C1 (centres undefined) | · | 102
57 | Cc1nc(NC(=O)Cn2c(=O)oc3cc(Cl)ccc32)sc1C | · | 99
58 | CCCC1=C(C(=O)OCC)C(c2cccc(F)c2)C(C#N)=C(N)O1 (centres undefined) | · | 108
59 | O=C1c2cccc([N+](=O)[O-])c2C(=O)N1C1C(=O)N(c2ccc(Cl)cc2[N+](=O)[O-])C1c1cccs1 (centres undefined) | · | 110
60 | CC(Oc1cc(Cl)c(Cl)cc1Cl)C(=O)N(Cc1ccccc1)C(C)(C)C(=O)Nc1ccccc1 (centres undefined) | · | 103
61 | COc1cc(/C=C2\N=C(c3ccc([N+](=O)[O-])cc3Cl)OC2=O)ccc1OC(C)=O | · | 120
62 | Cc1nc2c(C)cccn2c(=O)c1NC(=O)c1ccc(C(C)(C)C)cc1 | · | 97
63 | COC(=O)c1ccccc1NC(=O)c1ccc(N2CC3CC(C2)c2cccc(=O)n2C3)c(NC(=O)c2c(F)cccc2F)c1 (centres undefined) | · | 117
64 | O=C(Nc1ccc(Cl)cc1)N1c2ccccc2CCc2ccccc21 | · | 110
65 | CCOC(=O)CNC(=O)c1sc2ncnc(N3CCN(c4ccccc4OC)CC3)c2c1C | · | 108
66 | CCc1ccc(NC(=O)N2CCN(c3cc(-c4ccc(OC)cc4)ncn3)CC2)cc1 | · | 103
67 | CC1=C(C(=O)Nc2ccc(Cl)cc2)C(c2ccco2)C(C#N)=C(SCC(=O)Nc2ccc(C)cc2)N1 (centres undefined) | · | 104
68 | Cc1ccccc1-n1nc2c(c1NC(=O)c1ccc(S(=O)(=O)N3CCCC3)cc1)CS(=O)(=O)C2 | · | 111
69 | O=C(c1ccccc1F)N1CCN(c2nc(-c3ccc(Cl)cc3)no2)CC1 | · | 102
70 | Cc1ccc(-n2nc3c(c2NC(=O)COc2ccc(Cl)cc2Cl)CS(=O)(=O)C3)c(C)c1 | · | 110
71 | COc1cc(S(=O)(=O)n2nnc3ccccc32)ccc1Cl | · | 102
72 | CCN(CC)c1nc2ccsc2c(=O)n1CCC(=O)NC1CCCC1 | · | 100
73 | O=C(Cn1ncn2nc3c(c2c1=O)CCCC3)Nc1ccccc1F | · | 106
74 | O=C1COc2cc(Cl)ccc2N1Cc1nc(-c2ccccn2)no1 | · | 101
75 | COc1ccccc1N1CCN(c2ncnc3sc(C(=O)Nc4cc(C)on4)c(C)c23)CC1 | · | 117
76 | O=C(c1cccc([N+](=O)[O-])c1)N1N=C(C(F)(F)C(F)(F)C(F)(F)F)CC1(O)c1ccccc1 (centres undefined) | · | 102
77 | Cc1cc(F)ccc1NC(=O)CC1CCN(C(=O)c2cn(-c3ccccc3)nc2-c2ccccc2)CC1 | · | 103
78 | CN1CCN(CCCNC(=O)c2ccc3c(=O)n(Cc4ccc(Cl)cc4)c(=S)[nH]c3c2)CC1 | · | 106
79 | Cc1nc2c(C(=O)NCCCN3CCOCC3)cnn2c(C)c1Cc1ccccc1Br | · | 115
80 | CC(=O)NC1C(OCc2ccccc2)OC(CO)C(O)C1O (centres undefined) | · | 111
81 | COc1ccc2nc(SCC(=O)Nc3ccc(NC(C)=O)cc3)n(S(=O)(=O)c3ccc(Cl)cc3)c2c1 | · | 111
82 | Cc1cc(C2CCCN2C(=O)c2cc(-c3ccc(Br)cc3)on2)on1 (centres undefined) | · | 107
83 | O=S(=O)(NCc1nc2cccnc2n1C1CC1)c1cccc2nsnc12 | · | 98
84 | CCCCOc1ccc(CNC(=O)C2CCCN(C(=O)c3ccccc3F)C2)cc1 (centres undefined) | · | 93
85 | CCOC(=O)C1=C(C)Nc2c(C#N)c(SCc3ccccc3)nc(N)c2C1c1ccco1 (centres undefined) | · | 122
86 | NC(=O)c1ccc(NC(=O)c2ccc(=O)n(Cc3ccccc3Cl)c2)cc1 | · | 106
87 | Cc1ccc2nsnc2c1S(=O)(=O)NCCOC12CC3CC(CC(C3)C1)C2 | · | 108
88 | Cc1ccc(CN2CCCC2c2c(C)noc2C)cc1 (centres undefined) | · | 99
89 | Cc1ccc(-c2[nH]ncc2CN2CCCC2c2cc(C(C)C)on2)cc1 (centres undefined) | · | 132
90 | COc1ccc(/C=N/OCC(=O)Nc2oc(-c3ccccc3)c(-c3ccccc3)c2C#N)cc1OC | · | 108

Further compounds:
# | SMILES | HCMV UL50-53 inh | GIV-Gai inh
91 | COc1ccccc1NC(=O)CC(C(=O)O)N(C)C (centres undefined) | 1 | ·
92 | Cc1ccc(C(=O)CC(c2ccccc2)S(=O)(=O)c2ccccc2)cc1 (centres undefined) | -11 | ·
93 | N#Cc1ccsc1NC(=O)c1ccc(Br)s1 | -13 | ·
94 | C=N[C@@H](C(=O)N[C@@H]1C(=O)N2[C@@H]1SC(C)(C)[C@@H]2C(=O)O)c1ccccc1 | 4 | ·
95 | C[C@@H](C1=C(CCN(C)C)Cc2ccccc21)c1ccccn1 | -2 | ·
96 | O=C1CC(Nc2ccc(N3CCOCC3)cc2)C(=O)N1c1ccccc1C(F)(F)F (centres undefined) | -11 | ·
97 | CC(C)OCC(O)CN1CCN(Cc2ccccc2)CC1 (centres undefined) | -13 | ·
98 | O=S(=O)(NCc1ccc(Br)cc1)c1ccc(F)cc1 | 3 | ·
99 | CCOC(=O)N1CCN(CC(O)COc2ccc3ccccc3c2)CC1 (centres undefined) | 7&-12 | ·
100 | CC1(C)SC2C(NC(=O)Cc3ccccc3)C(=O)N2C1C(=O)O (centres undefined) | -17 | ·
101 | CCOC(=O)C1=C(SC)NC(=O)C(C)(C#N)C12CCCCC2 (centres undefined) | -2 | ·
102 | O=c1cc(-c2c(F)c(F)c(F)c(F)c2F)oc2ccccc12 | -24 | ·
103 | Cc1ccc(-n2cnc3cc(C(=O)NCC4CCCO4)ccc32)cc1Cl (centres undefined) | -12 | ·
104 | O=C(O)c1cccc2c(-c3ccccc3)c(-c3ccccc3)[nH]c12 | -18 | ·
105 | COc1ccc(N=Cc2oc(O)c3ccccc23)cc1 | -12 | ·
106 | COC(=O)C(NC(=O)c1cn(C)nc1C(F)(F)F)c1ccccc1 (centres undefined) | 9 | ·
107 | O=C(Nc1nc2c(F)cccc2s1)c1ccco1 | 26 | ·
108 | CC(NC(=O)C(C)(C)C)c1nc2ccccc2n1C (centres undefined) | 6 | ·
